High-throughput results deposited in PubChem BioAssay by ICCB-Longwood Screening Facility, Harvard Medical School.
AID504770 = growth inhibition of E. coli YBA685, primary screen, V. cholerae RctB inhibitors. E. coli YBA685 rctB-dependent plasmid, OD600 growth, 3 h; hits give low values. AID 504770, 2011. actives 0.27% (n = 130,000). z-score (no concentration beside the values);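 active means z-score under -2 on both plates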;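 further: wells of about 30 µL received 100 nL stock; score is relative to mean and SD of the test wells; the first replicate is given; strong numbers were not always called active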
CapD inh = Bacillus anthracis CapD inhibitors, primary screen, biochemical, fluorescence intensity; z-score (concentration not given with the values); purified CapD enzyme, fluorescence intensity read-out; hits give low values; some hits fall short of the stated cut; actives 0.23% (n = 140,000);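 active means z-score under -4 in either of two replicates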;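 further: stock transfer was 100 nL into about 40 µL; score is relative to mean and spread of the plate; one replicate is shown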
Starred values were filed as active, the others as inactive; nt = no result given.

Below each SMILES – AID504770 | CapD inh
CN(C)C=Nc1ccc(C(=O)/C=C/N(C)C)cc1
 : -1.7 | nt
CCN(CC)C(=O)c1noc2c1COc1ccccc1-2
 : -0.2 | 0.365
CN1CCN(c2ncnc3c2c(-c2ccccc2)cn3-c2ccc(Br)cc2)CC1
 : nt | -0.2
COC(=O)c1ccc(C)c(NC(=O)C2CC(=O)N(Cc3ccc(C)cc3)C2)c1 (centres undefined)
 : 1.5 | nt
O=C(NCCN1C(=O)S/C(=C\c2cccnc2)C1=O)c1cccc(S(=O)(=O)N2CCN(c3ccc(F)cc3)CC2)c1
 : 1.1 | nt
CCOc1nc(-c2ccccc2O)nc2ccccc12
 : -0.25 | -0.28
Cc1ccc(C(=O)OCN2C(=O)c3ccccc3C2=O)cc1
 : -0.6 | nt
CN1CCN(S(=O)(=O)c2ccc(NC(=S)NC(=O)C3CCCC3)cc2)CC1
 : -2.3 | 0.085
O=C1CSc2nnc(-c3ccncc3)n21
 : -0.65 | 0.815
Cc1ccc(S(=O)(=O)Nc2cc3c4c(oc3c3ccccc23)CCCC4=O)cc1
 : nt | 0.145
O=C(OCC(=O)N1CCc2ccccc21)c1ccc(S(=O)(=O)NCc2ccco2)cc1
 : -1.15 | nt
Cc1cccc(N2CCN(C(=O)Nc3cn(C)c(=O)c4ccccc34)CC2)c1C
 : 1.35 | 21.3
CC1(C)Cc2c(sc(NC(=O)Cc3ccccc3)c2C#N)C(C)(C)N1
 : -0.25 | -0.01
COC(=O)c1c(O)c[nH]c1C
 : 2.05 | nt
O=C1C(=Cc2cccnc2)C(=O)c2ccccc21
 : 0.85 | -0.645
CN1CCN(c2ccc(S(C)(=O)=O)cc2NC(=O)c2cccs2)CC1
 : nt | -0.885
CCSc1nnc(SCC(=O)NCc2ccc(OC)c(C(=O)O)c2)s1
 : 0.05 | nt
O=C(OCc1nc2ccccc2s1)c1n[nH]c(=O)c2ccccc12
 : 0.25 | nt
O=C(NNc1ccccc1C(F)(F)F)c1ccno1
 : -0.65 | -0.1
O=C(Nc1cccc(C(F)(F)F)c1)c1ccc(Br)o1
 : -0.55 | -0.465

Structures listed so far containing two or more sulfur atoms (4):
Below each SMILES – AID504770 | CapD inh
O=C(NCCN1C(=O)S/C(=C\c2cccnc2)C1=O)c1cccc(S(=O)(=O)N2CCN(c3ccc(F)cc3)CC2)c1
 : 1.1 | nt
CN1CCN(S(=O)(=O)c2ccc(NC(=S)NC(=O)C3CCCC3)cc2)CC1
 : -2.3 | 0.085
CN1CCN(c2ccc(S(C)(=O)=O)cc2NC(=O)c2cccs2)CC1
 : nt | -0.885
CCSc1nnc(SCC(=O)NCc2ccc(OC)c(C(=O)O)c2)s1
 : 0.05 | nt

Additional records follow.
Below each SMILES – AID504770 | CapD inh
CC12CC(/C(=C(O)\C=C\c3ccccc3)C(=O)N1)c1ccccc1O2 (centres undefined)
 : 0.4 | 2.06
COc1ccc2nc(SCC(=O)Nc3ccc(C(C)C)cc3)[nH]c2c1
 : nt | -0.01
O=C(NCCOc1ccc2ccccc2c1)c1cncc(Br)c1
 : 0.3 | 1.46
CCCC(CCC)C(=O)Nc1ccccc1
 : 0.75 | 0.705
N#CCS(=O)(=O)c1ccc2c(c1)OCCO2
 : 0.7 | nt
CC(CCC(=O)O)C1CCC2C3C(=O)CC4CC(=O)CCC4(C)C3CC(=O)C12C (centres undefined)
 : -0.45 | -0.845
CC(C)CCSc1nc(N)c(C#N)cc1C#N
 : 0.65 | 53.3
O=C(NC1CCCCC1)C(c1ccc(O)c(O)c1)N(C(=O)Cn1nnc2ccccc21)C1CCCCC1 (centres undefined)
 : -0.95 | nt
COCCCNC(=O)CSc1nc2ccc(Br)cc2c2nc3ccccc3n12
 : nt | -0.25
CN(CC(=O)NCc1ccccc1)Cc1nc2ccccc2c(=O)[nH]1
 : -0.6 | nt
Cc1ccc(-n2cc(-c3ccccc3)c3c(NCCc4ccc(S(N)(=O)=O)cc4)ncnc32)cc1
 : nt | -0.24
CCOc1ccc(CCNC(=O)CN2Cc3ccccc3C2=O)cc1OCC
 : 0.4 | -2.33
COc1ccccc1C1CC(=O)NC(SCC(N)=O)=C1C#N (centres undefined)
 : 2.25 | -0.945
CNc1cc(=O)n(C)c(=O)[nH]1
 : -0.6 | nt
Cc1cc(C)cc(NC(=O)NCc2c(-c3ccccc3)noc2C)c1
 : -0.55 | -0.105
O=C(c1cccs1)n1cnc2ccccc21
 : -1 | -0.675
COc1ccc(NS(=O)(=O)c2ccc3oc(=O)ccc3c2)cc1
 : 1.4 | -0.745
CC12CCC(O)CC1CCC1[C@@H]2CC(O)C2(C)C(C3=CC(=O)OC3)CCC12O (some centres undefined)
 : -0.7 | -0.34
CCOC(=O)C1=CN(Cc2ccc(OC)cc2)C=C(C(=O)OCC)C1c1ccc(OC)c(OC)c1
 : nt | 58.7
Cc1nnc(SC(C)C(=O)N2CCc3ccccc3C2)n(N)c1=O (centres undefined)
 : 0.6 | nt
CC1(C)CSC(Nc2cccc(C(F)(F)F)c2)=N1
 : -0.25 | 0.02
Cc1ccc(S(=O)(=O)NN2C(=O)c3ccccc3NC2c2cc(Cl)cc(Cl)c2O)cc1 (centres undefined)
 : nt | 60.7
c1cnc2cc(CNCc3ccc4c(c3)OCO4)ccc2n1
 : -0.6 | 0.76
Cc1cc2c(c(=O)n1Cc1ccccc1)C(c1ccncc1)C(C#N)=C(N)O2 (centres undefined)
 : -0.75 | nt
COc1cc(OC)c(NC(=O)c2sc3nc(C)nc(N4CCN(C)CC4)c3c2C)cc1Cl
 : nt | -0.445
CCOC(=O)c1ccc(-c2cc(=O)c3ccccc3o2)cc1
 : -0.3 | 0.52
O=C(CCC1Nc2c3ccccc3nc(=S)n2C1=O)NC1CC1 (centres undefined)
 : -0.8 | 1.52
Cc1ccc(N2CCN(CC(N)=O)CC2C)cc1 (centres undefined)
 : 2.55 | -0.515
CCOC(=O)c1c(NC(=O)C(C)Sc2nnc(C)s2)sc2c1CCCC2 (centres undefined)
 : 1.6 | nt
CN1C(N)=NC(=O)/C1=C/c1ccc(-c2ccc(Br)cc2)o1
 : -1.25 | 0.51
N#CC(NC(=S)Nc1cccc(Cl)c1)c1ccccc1 (centres undefined)
 : -0.1 | 2.61
CCOC(=O)c1cc(C)sc1/N=C/C1C(=O)NC(=S)NC1=O
 : 0.45 | 0.3
On1nnc2ccc(C(F)(F)F)cc21
 : nt | -0.345
Cc1cc(C(=O)COc2ccc(C#N)cc2)c(C)n1CC1CCCO1 (centres undefined)
 : -0.1 | nt
OC(CNCc1ccc(Cl)cc1Cl)Cn1c(-c2ccc(F)cc2)cc2ccccc21 (centres undefined)
 : -0.1 | 11
CC(=O)N1N=C(c2cccs2)CC1c1ccc(Br)cc1 (centres undefined)
 : nt | 25.4
Cc1cc(C)cc(C(=O)Nc2ccc(N3CCN(S(C)(=O)=O)CC3)cc2)c1
 : -0.25 | nt
C=CCn1c(CC(C)C)nnc1SCC(=O)Nc1ccc(Cl)cc1
 : -1.05 | -0.425
COc1ccc2c(c1)cc(C(=O)O)n2C
 : -0.5 | nt
CC(C)(C)c1ccc(C(=O)c2ncc[nH]2)cc1
 : 1.05 | -0.115

(listing goes on)
smiles	AID504770	CapD inh
CC(C)(C)C(=O)Nc1ccc(NC(=O)c2ccco2)cc1	-0.65	-0.635
N#Cc1c(F)cccc1OCC(F)(F)F	nt	0.37
N/N=C(\CCC(=O)O)c1ccccc1	-0.8	-0.035
Cc1noc(/C=C/c2ccco2)c1S(=O)(=O)N1CCC(C(=O)N2CCCCC2)CC1	-1.8	0.265
O=C(Nc1ccc2sc3ccccc3c(=O)c2c1)c1cccc(Cl)c1	nt	0.805
CC12CCC(=O)N1C(C(=O)OCC(=O)c1ccc(Cl)s1)CS2 (centres undefined)	-0.45	nt
C=CCc1cccc(C2Nc3cccc4cccc(c34)N2)c1O	nt	33.8
Cc1ccc(C2=Nc3ccccc3N(CC(=O)Nc3ccc4c(c3)OCO4)C(=O)C2)cc1	0.8	-0.54
CCCc1nc2ccccc2c2c1C(=O)N(NC(=O)c1ccccc1Cl)C2=O	nt	-0.675
O=C(NCC(=O)N1CCN(c2ccccc2)CC1)c1ccc(Br)cc1	-0.7	-0.42

Entries of single compounds, looked up by structure:
N#Cc1c(F)cccc1OCC(F)(F)F is listed with AID504770: nt; CapD inh: 0.37
N/N=C(\CCC(=O)O)c1ccccc1 is listed with AID504770: -0.8; CapD inh: -0.035

(more compounds)
smiles	AID504770	CapD inh
Cc1cc2c(cc1C)N(C(=O)c1ccc(F)cc1)C(C)(C)c1ssc(=S)c1-2	nt	0.5
Cc1cc(C)nc(N2Cc3ccccc3C2=NC(=O)c2ccc3c(c2)OCCO3)n1	-1.25	nt
CCCCCn1c(SCC(=O)OCC)nc2cc(C(=O)N3CCN(C(=O)OCC)CC3)ccc2c1=O	nt	0.095
COC(=O)CSc1nc2c3ccccc3ncn2n1	0.35	nt
CN(C)c1ccc(C2N3CC4([N+](=O)[O-])CN2CC([N+](=O)[O-])(C3)C4(C)C)cc1 (centres undefined)	nt	-0.01
CCn1c(=O)c2cc(C(=O)NCC(OC)OC)sc2c2ccccc21	0.4	0.73
CCOc1ccc(/C=C2/C(=O)Nc3ccccc32)cc1	2	-0.425
COc1ccc(OC)c(S(=O)(=O)N2CCc3cc(OC)c(OC)cc3C2C)c1 (centres undefined)	nt	-0.245
COC(=O)c1cc(=O)n(-c2ccc(C(F)(F)F)cc2)[nH]1	0.35	0.025
COc1ccc(CNC(=O)c2ccc3c(c2)[nH]c(=S)n2c4ccccc4nc32)cc1	nt	-0.145
Cc1cc(N2CCCC2)ccc1NC(=O)CNC(=O)C1CCCCC1	-2	nt
S=C(Nc1ccccc1Cl)N(CCN1CCCCCC1)Cc1cccs1	nt	0.86
CC(SCCc1ccccn1)C(=O)O (centres undefined)	-0.35	-0.46
Fc1ccc(CN(Cc2ccco2)Cc2nnnn2CCc2ccccc2)cc1	1	nt
O=C1CCc2cc(S(=O)(=O)NCc3ccccc3)ccc2N1	0.05	0.745
CC(Oc1ccccc1)c1ccnc2ncnn12 (centres undefined)	-0.5	-0.22
Cc1oc(C(C)(C)C)cc1C(=O)NCc1csc(-c2cccs2)n1	-0.75	44.7
COc1ccc(S(=O)(=O)C(F)(F)F)cc1S(=O)(=O)C(F)(F)F	0.25	0.245
COc1cc2c(cc1OC)-c1c(C#N)c(-c3ccc(C)cc3)c(C(=O)c3cccs3)n1CC2	-0.7	-0.26
Cc1cccc(N2CCC(N=CN(CCO)CCO)=N2)c1	-1.45	nt
COC1(OC)N=C(N)C2(C#N)C(c3ccccc3)C12C#N (centres undefined)	0.65	0.53
Cc1ccc(OCC(=O)NNC(=O)NC(=O)c2ccccc2Cl)c2c1CCC2	nt	-0.17
COc1ccc(CC2=C(C)C(=O)N(c3ccc(OC)cc3)C2=O)cc1	-0.7	nt
C[C@@H]1O[C@@H](O[C@H]2C[C@@H](O)[C@]3(CO)[C@H]4[C@H](O)C[C@]5(C)[C@@H](C6=CC(=O)OC6)CC[C@]5(O)[C@@H]4CC[C@]3(O)C2)[C@H](O)[C@H](O)[C@H]1O	nt	-0.15
CCOC(=O)C1SC(c2ccccc2)C(C#N)C1(O)c1ccccc1 (centres undefined)	0.7	-0.45
O=C(Nc1ccccc1C(F)(F)F)c1cc2ccccc2oc1=O	nt	0.33
O=C(Cn1ncc2c(=O)oc3ccccc3c21)NCC1COc2ccccc2O1 (centres undefined)	0.65	0.3
Nc1c(-c2ccccc2)cnn1C1CCS(=O)(=O)C1 (centres undefined)	1.6	0
C=CCNC(=O)c1ccc(N2C(=O)c3ccccc3C2=O)cc1	1.6	nt
CCOC(=O)c1c(-c2ccccc2)csc1/N=C/c1c(C)[nH]n(-c2ccc(C)cc2)c1=O	nt	0.15
COc1cc(/C=c2\sc3nc4ccccc4n3c2=O)ccc1OCc1c(F)cccc1Cl	nt	-0.21
OCc1ccccc1NC(=S)NCc1ccccc1	0.3	nt
CN(C(=O)c1cccnc1Cl)C1CCS(=O)(=O)C1 (centres undefined)	-0.6	0.385
COCCNc1nc(SCc2cc(C(C)=O)ccc2OC)nc2ccccc12	nt	0.33
O=C(Nc1ccccc1)c1ccc(-c2nc3ccccc3s2)s1	0.1	nt
CN(C)c1ccc(C=Nc2ccc(C(=O)O)c(O)c2)cc1	-0.35	-1.72
O/N=C1\CC(c2ccccc2)OC12CCCCC2 (centres undefined)	1.65	0.035
Cc1ccc(N2C(=O)C(N3C(=O)c4cccc([N+](=O)[O-])c4C3=O)C2c2cccs2)cc1F (centres undefined)	nt	-0.22
Cc1ccc(CN(C)CC(=O)NC(C)c2ccccc2)cc1 (centres undefined)	-0.45	nt
O=C(N/C(=C\c1ccc(-c2ccccc2)o1)C(=O)N1CCOCC1)c1ccccc1	0.5	1.06

Reprinted from the part before: two compounds; new compounds follow.
smiles	AID504770	CapD inh
Cc1ccc(CN(C)CC(=O)NC(C)c2ccccc2)cc1 (centres undefined)	-0.45	nt
O=C(N/C(=C\c1ccc(-c2ccccc2)o1)C(=O)N1CCOCC1)c1ccccc1	0.5	1.06
Cc1ccc(-c2nc(-c3ccc(NC(=O)c4ccco4)cc3)no2)cc1[N+](=O)[O-]	nt	0.1
CCn1cnc2ccccc21	-0.7	nt
O=C(NCCSc1c[nH]c2ccccc12)c1ccc2c(c1)OCO2	-0.45	-0.34
CC(C)c1ccc(-c2nnn(CC(N)=O)n2)cc1	-0.25	nt

The list is partial; the hit share may differ from the screen's.
